Arbovirus inh – antivirals against arbovirus infection; inhibition, % at 10 µM; actives 0.37% (n = 200,000); arbovirus infection cell-based antiviral screen;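 active = inhibition from about 30%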;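 note: bluetongue infection of BSR cells; cell survival read as ATP light after 72 h; 0% = infected wells without compound and 100% = uninfected wells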
YopH PTP inh – inhibitors of Yersinia enterocolitica YopH tyrosine phosphatase | actives 0.16% (n = 140,000) | fluorescence Ex485/Em525 | inhibition, %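 (about 10 µM by stock and volumes)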;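 active = inhibition of 50% or more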;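 note: controls were vehicle for no effect and minimum signal wells for full effect; inactives centre near -20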
RecA intein inh – inhibitors of M. tuberculosis RecA intein splicing. P9WHJ3. cell-free RecA intein splicing, fluorescence. inhibition, %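 (about 9 µM by stock and volumes)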. actives 0.75% (n = 290,000); in the data active = inhibition above about 30%; inconclusive = no clear call, values can overlap the other calls;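 note: 0% = vehicle wells and 100% = reference inhibitor control wells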
Target sequence (P9WHJ3 whole entry, looked up): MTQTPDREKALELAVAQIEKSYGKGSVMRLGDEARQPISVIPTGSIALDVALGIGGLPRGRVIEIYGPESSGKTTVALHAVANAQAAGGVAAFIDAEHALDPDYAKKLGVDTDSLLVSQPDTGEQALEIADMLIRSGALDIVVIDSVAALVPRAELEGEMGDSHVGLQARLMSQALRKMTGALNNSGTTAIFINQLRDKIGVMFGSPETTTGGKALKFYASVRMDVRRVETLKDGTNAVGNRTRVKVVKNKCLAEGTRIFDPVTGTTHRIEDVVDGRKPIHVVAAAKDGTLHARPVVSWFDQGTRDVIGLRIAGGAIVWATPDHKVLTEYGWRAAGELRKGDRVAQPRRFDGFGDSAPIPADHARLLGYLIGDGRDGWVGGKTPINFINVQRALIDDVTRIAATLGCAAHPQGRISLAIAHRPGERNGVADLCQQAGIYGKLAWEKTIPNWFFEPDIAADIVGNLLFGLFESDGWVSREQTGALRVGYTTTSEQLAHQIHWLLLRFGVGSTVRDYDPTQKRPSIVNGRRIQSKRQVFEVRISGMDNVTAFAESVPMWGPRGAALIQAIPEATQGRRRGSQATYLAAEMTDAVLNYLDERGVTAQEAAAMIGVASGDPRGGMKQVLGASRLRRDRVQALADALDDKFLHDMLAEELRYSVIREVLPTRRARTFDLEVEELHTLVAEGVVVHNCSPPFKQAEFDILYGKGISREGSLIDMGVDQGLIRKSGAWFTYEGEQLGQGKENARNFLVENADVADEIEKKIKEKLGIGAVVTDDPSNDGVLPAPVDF
Mtb growth – M. tuberculosis H37Rv growth inhibitors, H37Rv strain (AID 1626); M. tuberculosis H37Rv growth inhibition; higher % means a stronger effect; one-dose inhibition, % at 10 µM; IC50 in µM for titrated hits; actives 0.95% (n = 220,000);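 active = confirmed in a dose series; inconclusive = inhibition above 80% but not taken into the dose series; inactive = below 80% or under 30% at every dose of the series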;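 note: bacteria incubated seven days before Alamar blue readout; 0% = bacteria only wells and 100% = bacteria with antibiotic wells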
Mtb betalactam – beta-lactam sensitization of Mtb H37Rv. M. tuberculosis H37Rv growth with meropenem, percent inhibition; hits of this screen are not shown here. inhibition, % at 25 µM. actives 0.27% (n = 330,000). AID 434955;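 active = about 74% or more and at least 40 points above the plate without the antibiotic, then above 30% in a dose series; inconclusive = first-round hits that could not be retested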;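 note: growth measured after seven days incubation then overnight dye step; 0% = bacteria only wells and 100% = bacteria with antibiotic; twin plates without the antibiotic show which effects depend on it; some results filed as inactive read as strong as hits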
Arbovirus inh repeat – further read-out of Arbovirus inh, marked with its call; inhibition, %; measured here: 10K subset replicate screen; many hits read low in the repeat;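 first of two repeat runs on a subset; 0% = infected and 100% = uninfected wells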
Starred values were filed as active, the others as inactive; ? = inconclusive; / = no result given. These rows are one share of the data; count on the stated rates, not on these rows.

SMILES	Arbovirus inh	YopH PTP inh	RecA intein inh	Mtb growth	Mtb betalactam	others
COc1ccc(C2/C=C\CN(C(=O)c3ccccc3)CC(=O)N2Cc2ccc(F)cc2)cc1 (stereo not drawn)	/	/	3.4	0%	-6
CCOC(=O)Cn1nc(-c2ccccc2)c2cnc3ccc(CC)cc3c21	-4	-33	4.1	/	62
O=C(NC1CCCN(Cc2ccccc2F)C1)C1CCC1 (stereo not drawn)	/	/	-0.8	/	-1
Cc1ccc(S(=O)(=O)NC2c3cccc4cccc(c34)C2Sc2nncn2C)cc1 (stereo not drawn)	0	-20	1.1	-5%	-7
Cc1cc2nnc(SCC(=O)OC(C)C)n2c2ccccc12	4	15	1.5	-9%	1
Cc1ccc2nc(SCC(=O)NNC(=O)c3ccccc3)[nH]c2c1	1	-5	-2.7	-4%	8
COC(=O)C1=NNC(C(=O)c2ccco2)C1c1ccccc1 (stereo not drawn)	-2	/	0.7	5%	7
O=C1CCCc2sc3c(c2N1)CCCCC3	7	-6	-1.0	-9%	?	Arbovirus inh repeat=1
c1ccc(CSc2cc3ccccc3[nH]2)cc1	/	/	12	/	-8
CCCn1nc2cc(C(=O)NCCc3cccs3)ccc2c1OCC	-3	-38	-0.1	0%	1
Cn1c(=Nc2ccc(N3CCOCC3)cc2)ccc2ccccc21	-7	-35	2.0	6%	1
O=C(NCCCn1ccnc1)c1nc(Cn2cc(Br)cn2)no1	/	/	-1.4	/	0
Cc1nc(CS(=O)(=O)c2ccccc2)cc(Sc2ccccc2Cl)n1	-5	-31	1.8	4%	-3
CCNc1c(NC(C)=O)c(=O)oc2ccccc12	-6	-50	-1.4	6%	6
O=C(Cn1nnc(-c2ccccc2)n1)N1CCCCC1	/	/	0.6	/	-1
Cc1cccc(CSc2nc3c(c(=O)[nH]2)CCC3)c1	14	/	-0.2	12%	6
CC(C)(C)C(=O)NC(=S)Nc1ccccc1C(N)=O	-4	-36	12	-7%	-6
CC(=O)N1CCc2c(sc(NC(=O)CS(=O)(=O)c3ccc(F)cc3)c2C(N)=O)C1	/	/	-1.2	/	-6
O=C1NC(CCc2ccccc2)C(=O)N1Cc1ccc(Br)cc1 (stereo not drawn)	13	/	0.4	7%	-3
O=C(CCN1C(=O)C2CC=C(Cl)CC2C1=O)NC1CCCCC1 (stereo not drawn)	5	-10	-5.1	-1%	-1
CSc1cccc2sc(NC(=O)C3=COCCO3)nc12	/	/	-1.6	/	0
COc1ccc(C(C)=O)cc1CSc1nc2cc(Cl)ccc2o1	-2	-17	1.0	7%	1
COc1ccc(Cl)cc1NC(=O)CN(C)C(C)C(=O)NC(=O)NC1CCCCC1 (stereo not drawn)	/	/	-1.4	/	2
Nc1nonc1C(=O)N/N=C/c1ccc(-c2cccc([N+](=O)[O-])c2)o1	4	13	0.0	11%	-2
Cc1oc(-c2cccc(Cl)c2)nc1CN1CCC(C(=O)NCc2ccco2)CC1	-2	-32	-1.7	5%	3
O=C(NC1CCCC1)c1ccc(S(=O)(=O)N2CCOCC2)cc1	0	-25	0.1	-8%	10
Cc1ccc(C)c(CSc2nnc(-c3cccnc3)n2N)c1	6	2	/	-1%	9
Cc1ccc2c(c1)N(CC(=O)NCCCN1CCCCC1)C(=O)c1cccnc1O2	/	/	-1.9	/	-8
Nc1ccc(-c2cc(-c3ccc(N)cc3)nc(-c3ccccc3)n2)cc1	3	-17	-1.6	-5%	2
CC1CN(CCc2ccccc2)c2nc3c(c(=O)[nH]c(=O)n3C)n2C1 (stereo not drawn)	-3	-47	1.1	-9%	24
Cc1nn(C)c(C(=O)N2CCN(C(=O)c3ccco3)CC2)c1Br	8	-12	0.4	4%	8
O=C(NNC(=O)C1CCCN(S(=O)(=O)c2ccc3ccccc3c2)C1)C1CC1 (stereo not drawn)	2	/	-1.9	-1%	/
O=C(O)c1cnn(-c2nc(-c3ccc(Cl)c(Cl)c3)cs2)c1C(F)(F)F	/	/	26	/	-2
O=C(/C=C/c1ccccc1)NC1CCCc2ccccc21 (stereo not drawn)	-8	/	-0.1	-6%	-1
O=C(CC(=O)c1cccc([N+](=O)[O-])c1)Nc1ccccc1Cl	-5	/	/	1%	3
CCOC(=O)CC(=O)CSc1nc2sc(C)cc2c(=O)n1Cc1ccco1	8	-39	0.5	-5%	1
COc1ccccc1OCCN1CSC(=S)N(C)C1	-34	-17	18	10%	100
COc1ccc(N(CC(=O)NC2CCCC2)C(=O)CCC(=O)Nc2cc(C)on2)cc1OC	/	/	-1.3	/	-10
COc1ccccc1-c1nnc(SCC(=O)NC2CCS(=O)(=O)C2)n1N (stereo not drawn)	1	/	-2.2	5%	-9
CC(C)Oc1cccc(C(=O)C2CCCN(C(=O)c3cc(C(F)(F)F)[nH]n3)C2)c1 (stereo not drawn)	/	/	-1.0	/	-7
CC(Oc1cccc(Cl)c1)C(=O)N(C)CC(=O)Nc1ccc(N2CCOCC2)cc1 (stereo not drawn)	/	/	0.3	/	-9
Cc1cc(=O)oc2c(C(=O)c3ccccc3)c(OCC(N)=O)ccc12	/	/	-1.9	-8%	2
CC(Oc1ccc2c3c(c(=O)oc2c1)CCCC3)C(=O)NCC(O)c1ccccc1 (stereo not drawn)	/	/	-0.4	/	2
Cc1ccc(C)c(C(=O)COC(=O)Cn2c(C)csc2=O)c1	/	/	-0.2	/	-3
O=C(NCCCNCCCNC(=O)c1ccccn1)c1ccccn1	4	-42	1.4	-3%	-6
O=C(COc1ccccc1Cl)NC(=O)NC1CCCCC1	/	/	1.4	/	8
CC1CCCCN1CCCNC(=O)CN1C(=O)c2cccnc2Oc2ccc(Cl)cc21 (stereo not drawn)	/	/	2.4	/	?
COc1ccc(NC2c3ccccc3C(=O)N2c2ccccn2)cc1 (stereo not drawn)	/	/	4.9	5%	-8
COc1ccc(N2CCN(CC(O)COc3ccccc3[N+](=O)[O-])CC2)cc1 (stereo not drawn)	10	-10	-2.3	4%	-5
O=C(O)c1ccc(N2C(=O)c3cccc4cccc(c34)C2=O)cc1	/	/	-1.6	/	-1

Additional results.
SMILES	Arbovirus inh	YopH PTP inh	RecA intein inh	Mtb growth	Mtb betalactam	others
CN(C)c1ccc(/C=N/NC(=O)c2nonc2N)cc1[N+](=O)[O-]	-1	/	/	-2%	8
CCCCn1c(C)cc(C)c(S(=O)(=O)c2ccccc2C)c1=O	6	-8	16	1%	4
COc1cc2c(cc1OC)CN(CC(=O)Nc1cccc(C)c1)CC2	3	-17	-5.0	-10%	-4
c1ccc(C[n+]2cccc3c4ccccc4ccc32)cc1	2	-32	-2.4	10%	-8
CN(C(=O)c1ccc2c(c1)OCO2)C1CCCCC1	/	/	-0.3	/	1
COc1cccc(CNC2CCCc3ccccc32)c1OC (stereo not drawn)	-4	/	-3.8	-19%	-2
CC(=O)Nc1ccc(S(=O)(=O)N(Cc2ccccc2)C(C)C)cc1	12	3	-3.2	-12%	6
COCCCNC(=O)COc1cc(C)c(Cl)c(C)c1	4	-41	0.0	5%	1	Arbovirus inh repeat=-5
O=C(Nc1ccc(S(=O)(=O)NC2=NCCCCC2)cc1)c1ccc([N+](=O)[O-])s1	/	/	-2.3	/	16
CC(C)CCN(C(=O)C1CSC2(C)CCC(=O)N12)c1c(N)n(Cc2ccccc2)c(=O)[nH]c1=O (stereo not drawn)	/	/	-3.4	/	-12
COc1ccc(OC)c(Nc2nc(-c3ccc(O)c(O)c3)cs2)c1	-21	-5	6.0	4%	-9
CCc1nnc(NC(=O)CSc2nc3c(c(=O)n2C)SC(C)C3)s1 (stereo not drawn)	9	-7	0.5	3%	-5
COc1ccc(CC2S/C(=N/N=C/c3ccc(O)cc3)NC2=O)cc1 (stereo not drawn)	-5	/	3.6	-7%	0
O=C(CCC1CCN(Cc2ccccc2O)CC1)NC1CC1	/	/	-1.7	/	0
CCOC(CNC(=O)C(=O)Nc1cc2c3c(c1)CC(=O)N3CCC2)OCC	/	/	8.4	/	0
COc1ccccc1C(=O)Nc1ccc2c(c1)CN(C(=O)CSC)CC2	/	/	-1.8	/	10
O=C(CS(=O)(=O)c1cn(CC(=O)N2CCCC2)c2ccccc12)Nc1ccccc1F	/	/	-2.0	/	?
Cc1cc2cc3c(cc2nc1SCC(=O)OC(C)C)OCO3	7	-5	-2.9	/	/
CCOc1cc(C)c(C(C)C)cc1S(=O)(=O)N1CCN(C)CC1	3	-31	-1.7	-11%	-1
Cc1ccc(S(=O)(=O)NNC(=O)c2snnc2C)cc1	-1	-28	-9.0	-12%	-2
COc1ccccc1CNC(=O)CN(c1ccc(C)cc1)S(=O)(=O)c1c(C)nn(C)c1C	-1	-19	1.2	-2%	14
CCn1c(=O)n(CC(=O)Nc2cccc(OC)c2)c(=O)c2ccccc21	-5	-39	0.8	0%	-6
Cc1ccc(C)n1-c1ccc(C(=O)NCC2CCCO2)cc1 (stereo not drawn)	-16	-11	/	-2%	-2
Cc1ccc(S(=O)(=O)N2CCOCC2)cc1C(=O)NC1CCCCC1	5	-41	0.6	0%	-5
COc1c(C=O)c(CCN(C)C(=O)c2ccc(F)cc2)cc2c1OCO2	/	/	-1.1	3%	-5
CCCCCCCNC(=O)C1(CC2CC(c3ccc(Cl)cc3)=NO2)CCN(C(=O)C2(C)CC2)CC1 (stereo not drawn)	/	/	9.5	/	97
O=C(CSc1nnnn1C1CCCCC1)Nc1ccc2c(c1)OCO2	-11	-24	-1.7	-15%	3
CCOc1ccc(NC(=O)CSc2nc3ccccc3c(=O)n2Cc2cccs2)cc1	2	-14	2.2	6%	3
Cc1ccnc(NS(=O)(=O)c2ccc(NC(=O)c3ccc(Br)o3)cc2)n1	22	/	0.2	-8%	-4
CCC(C(=O)NCc1ccco1)n1nc(-c2ccc(OC)cc2)ccc1=O (stereo not drawn)	8	-39	1.1	-2%	-10

Copied from the listing (17 entries):
SMILES	Arbovirus inh	YopH PTP inh	RecA intein inh	Mtb growth	Mtb betalactam	others
O=C(CCC1CCN(Cc2ccccc2O)CC1)NC1CC1	/	/	-1.7	/	0
CCOC(CNC(=O)C(=O)Nc1cc2c3c(c1)CC(=O)N3CCC2)OCC	/	/	8.4	/	0
COc1ccccc1C(=O)Nc1ccc2c(c1)CN(C(=O)CSC)CC2	/	/	-1.8	/	10
O=C(CS(=O)(=O)c1cn(CC(=O)N2CCCC2)c2ccccc12)Nc1ccccc1F	/	/	-2.0	/	?
Cc1cc2cc3c(cc2nc1SCC(=O)OC(C)C)OCO3	7	-5	-2.9	/	/
CCOc1cc(C)c(C(C)C)cc1S(=O)(=O)N1CCN(C)CC1	3	-31	-1.7	-11%	-1
Cc1ccc(S(=O)(=O)NNC(=O)c2snnc2C)cc1	-1	-28	-9.0	-12%	-2
COc1ccccc1CNC(=O)CN(c1ccc(C)cc1)S(=O)(=O)c1c(C)nn(C)c1C	-1	-19	1.2	-2%	14
CCn1c(=O)n(CC(=O)Nc2cccc(OC)c2)c(=O)c2ccccc21	-5	-39	0.8	0%	-6
Cc1ccc(C)n1-c1ccc(C(=O)NCC2CCCO2)cc1 (stereo not drawn)	-16	-11	/	-2%	-2
Cc1ccc(S(=O)(=O)N2CCOCC2)cc1C(=O)NC1CCCCC1	5	-41	0.6	0%	-5
COc1c(C=O)c(CCN(C)C(=O)c2ccc(F)cc2)cc2c1OCO2	/	/	-1.1	3%	-5
CCCCCCCNC(=O)C1(CC2CC(c3ccc(Cl)cc3)=NO2)CCN(C(=O)C2(C)CC2)CC1 (stereo not drawn)	/	/	9.5	/	97
O=C(CSc1nnnn1C1CCCCC1)Nc1ccc2c(c1)OCO2	-11	-24	-1.7	-15%	3
CCOc1ccc(NC(=O)CSc2nc3ccccc3c(=O)n2Cc2cccs2)cc1	2	-14	2.2	6%	3
Cc1ccnc(NS(=O)(=O)c2ccc(NC(=O)c3ccc(Br)o3)cc2)n1	22	/	0.2	-8%	-4
CCC(C(=O)NCc1ccco1)n1nc(-c2ccc(OC)cc2)ccc1=O (stereo not drawn)	8	-39	1.1	-2%	-10

Continued:
SMILES	Arbovirus inh	YopH PTP inh	RecA intein inh	Mtb growth	Mtb betalactam	others
CC(=O)c1cccc(NC(=O)CN2C(=O)COc3ccc(Cl)cc32)c1	2	-23	-1.1	-12%	-11
Fc1ccc(-n2c(Cc3cccs3)n[nH]c2=S)cc1Cl	-2	/	-3.0	3%	-2
Cc1ccc(-c2cn(-c3ccccc3)c(SCC(=O)NC3CCS(=O)(=O)C3)n2)cc1C (stereo not drawn)	-7	-33	2.3	-4%	-8
Cc1sc(N/N=C/c2cccnc2)nc1-c1ccccc1	5	-12	-1.4	7%	22
O=C(CN1C(=O)CSc2ccccc21)N/N=C/c1ccco1	/	/	0.7	1%	1
C1CSC2(N1)C1CC3CC(C1)CC2C3 (stereo not drawn)	6	-37	4.6	-4%	-3

High-throughput results: PubChem BioAssay, several laboratories
